Screening data (PubChem BioAssay)
LASV entry inh = qHTS for Inhibitors of binding or entry into cells for Lassa Virus. Lassa virus pseudotype entry inhibition, cell reporter; control for the full effect not named in the record. Potency, µM (top dose mostly 37.9 µM), for inactives: at the highest dose activity change, negative = inhibition, hits mostly inhibitors. 1.2% of 300,000 active. AID 540256, 2011; active means well fitted inhibition curve with a large enough effect; inconclusive means small, poorly fitted or top-dose-only effect, or effect the other way; inactive means flat fitted curve, though single readings scatter; tested in HEK293 cells; further: on the % scale 0 is the no-effect control and ±100 the full control effect; nearly all actives have a fitted effect of over 50% in size; luciferase read-out
SARS PLpro yeast = qHTS of Yeast-based Assay for SARS-CoV PLP; 0.19% of 330,000 active; S. cerevisiae expressing SARS-CoV PLpro, growth rescue; control for the full effect not named in the record; Potency, µM (series often up to 32.9 µM), without a hit: top-dose activity, positive = growth rescue; AID 485353, 2010; further: 0% is about no effect; nearly all actives have a fitted effect of over 55% in size; growth read by luminescence after 48 h
2A StopGo = High Throughput Screening for Foot and Mouth Disease Virus Antivirals. Potency, µM (doses to about 57.9 µM), without a hit: at the top dose signal change, negative = less light. human cells with a luciferase reporter of 2A StopGo recoding; control for the full effect not named in the record. 1.2% of 410,000 active; active = well fitted falling curve with a large enough effect; inconclusive = small, poorly fitted or top-dose-only effect; inactive = no such curve, though single readings can be large or run the other way; tested in HEK293T cells; further: on the % scale 0 is the no-effect control and ±100 the full control effect; nearly all actives have a fitted effect of over 45% in size; luciferase light after 4 h
Cruzain inh Det = qHTS Assay for Promiscuous and Specific Inhibitors of Cruzain (with detergent); Cruzipain (Trypanosoma cruzi), P25779; purified cruzain, Z-FR-AMC fluorescence, 0.01% Triton; Potency, µM, without a hit: max response, negative = inhibition, usual class: inhibitors; 0.43% of 200,000 active; AID 1478, 2009; active means well fitted curve in the direction sought with a large enough effect; inconclusive means small, poorly fitted or top-dose-only effect, or another doubt; inactive means no such curve, though single readings can be large; an effect the other way counts as inactive or inconclusive;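 further: plate controls were neutral wells for no effect and buffer without enzyme for full effect; nearly all actives have a fitted effect of over 40% in size; top concentration of the series not given in the record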
Target sequence (P25779 123-467 limits assumed): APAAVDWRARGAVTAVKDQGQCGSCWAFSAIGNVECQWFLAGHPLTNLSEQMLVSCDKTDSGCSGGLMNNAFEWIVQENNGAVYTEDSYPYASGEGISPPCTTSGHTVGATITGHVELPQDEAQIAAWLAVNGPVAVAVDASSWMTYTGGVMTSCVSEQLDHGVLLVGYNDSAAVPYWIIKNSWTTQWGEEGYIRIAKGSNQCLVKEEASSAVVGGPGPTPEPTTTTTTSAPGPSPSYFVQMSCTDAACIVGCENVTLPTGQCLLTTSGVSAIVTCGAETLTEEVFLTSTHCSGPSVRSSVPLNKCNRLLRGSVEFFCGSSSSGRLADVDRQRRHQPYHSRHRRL
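Read-out: AMC fluorescence (360 nm excitation, 450 nm emission), four reads over 2 min, first-to-third difference used. Conditions: cruzain 1.5 nM, Z-FR-AMC 2 uM, pH 5.5 acetate, 5 mM DTT, 0.01% Triton X-100.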
Cruzain noTriton = qHTS Assay for Promiscuous and Specific Inhibitors of Cruzain (without detergent) | Cruzipain (Trypanosoma cruzi), P25779 | purified cruzain, Z-FR-AMC fluorescence, no detergent | Potency, µM, inactives show max response, negative = inhibition, usual class: inhibitors | 2.3% of 200,000 active | AID 1476, 2009; active means well fitted curve in the direction sought with a large enough effect; inconclusive means small, poorly fitted or top-dose-only effect, or another doubt; inactive means no such curve, though single readings can be large; an effect the other way counts as inactive or inconclusive;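 further: plate controls were enzyme without inhibitor for no effect and buffer without enzyme for full effect; nearly all actives have a fitted effect of over 40% in size; top concentration of the series not given in the record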
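Purified cruzain at 1.5 nM, pre-incubated 15 min with compound at room temperature in 100 mM sodium acetate pH 5.5, 5 mM DTT, 0.00005% Triton X-100. Reaction started with 2 uM Z-FR-AMC; AMC fluorescence increase over 60 s gives rate.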
Marburg entry inh = qHTS for inhibitors of binding or entry into cells for Marburg Virus; Marburg virus pseudotyped entry inhibition, cell reporter; control for the full effect not named in the record; about a third of the inactives were read at about 46 µM; Potency, µM (top dose mostly 37.8 µM), for the others: top-dose activity change, negative = inhibition, actives largely listed as inhibitors; 1.8% of 300,000 active; AID 540276, 2011; active = well fitted inhibition curve with a large enough effect; inconclusive = small, poorly fitted or top-dose-only effect, or effect the other way; inactive = flat fitted curve, though single readings scatter; tested in HEK293 cells; about a fifth of its hits are not listed in these tables; further: on the % scale 0 is the no-effect control and ±100 the full control effect; luciferase read-out
NS1 function inh = qHTS Assay for Inhibitors of Influenza NS1 Protein Function | AID 2326, 2010 | Potency, µM (top dose mostly 46.1 µM), for the others: at the highest dose activity, positive = more growth | S. cerevisiae slowed by influenza A NS1, growth recovery by OD600 | 0.4% of 270,000 active; further: actives are rising curves; nearly all actives have a fitted effect of over 50% in size
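Read-out: OD600 growth recovery of NS1-expressing budding yeast. Cells grown overnight at 30C in -URA glucose medium, washed, resuspended and diluted 1:100 in 2% galactose assay medium, pH 6.0. Same strain lacking NS1 served as positive control.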
RE007 growth inh = qHTS Assay for Inhibitors of the HIV-1 protein Vpr; 0.21% of 360,000 active; Potency, µM (titrated, usually from 92.2 µM), for inactives: at the top dose activity change, negative = less growth; S. pombe RE007 Vpr strain, BacTiter-Glo ATP luminescence, 24 h; control for the full effect not named in the record; active = well fitted falling curve with a large enough effect; inconclusive = small, poorly fitted or top-dose-only effect; inactive = no such curve, though single readings can be large or run the other way;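 further: on the % scale 0 is the no-effect control and ±100 the full control effect; nearly all actives have a fitted effect of over 50% in size; the assay follows cell death caused by Vpr and the record does not say whether a fall means rescue or toxicity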
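Fission yeast strain RE007, carrying one chromosomally integrated HIV-1 vpr copy, was seeded at OD 0.01 in PMG+AL medium with 23 nL pinned compound. After 24 h at 30 °C and 99% humidity, viability was read by BacTiter-Glo luminescence.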
An asterisk follows results filed as active; ? = inconclusive; . = not tested or not shown; & = joins results of further samples; [ ] = dose if it differs, or a comment. Unless noted, the call rests on the fitted dose curve; in most records, active means well fitted rising curve with a large enough effect; inconclusive means small, poorly fitted or top-dose-only effect; inactive means no such curve, though single readings can be large or run the other way. Potency means the concentration at half of the fitted maximal effect.

SMILES | LASV entry inh | SARS PLpro yeast | 2A StopGo | Cruzain inh Det | Cruzain noTriton | Marburg entry inh | NS1 function inh | RE007 growth inh
CC(C)(C)[C@H]1C=C(C(=O)N2CCN(Cc3ccc4c(c3)OCO4)CC2)O[C@@H](OCc2ccc(CO)cc2)C1 | . | 0% | -14% | . | . | . | -12% | -4%
Cc1ccc(-c2cc(C(=O)N(Cc3ccccc3)Cc3ccco3)no2)cc1F | -1%[46.1 µM] | . | -14% | -5.0% | 3% | 8%[46.1 µM] | . | .
COc1ccc(NC(=O)C2C3C=CC4(O3)C2C(=O)N(CCN2CCCCC2)C4C(=O)NC2CCCC(C)C2C)cc1 (stereo not drawn) | 16%[46.1 µM] | 2% | -17% | . | . | 5µM* | 5% | -2%
O=C(COC(=O)/C=C/C(=O)N1CCN(c2ccccc2)CC1)NC(c1ccccc1)c1ccccc1 | . | 5% | ? | . | . | . | 6% | 2%
COc1ccc(/C=C2\SC(=O)N(CCNC(=O)C3CCN(S(=O)(=O)c4cccs4)CC3)C2=O)cc1 | -1% | 4% | 21% | -6.4% | 1% | ? | -9% | -9%
CCOC(=O)c1csc(-c2ccc3c(c2)CCO3)n1 | 19%[46.1 µM] | -2% | -7% | . | . | ? | 0% | -13%
COc1ccccc1C(=O)c1nc2ccccc2n1C | . | 0% | -7% | . | . | . | 3% | 9%
Cc1cc(-c2nnc(CCC(=O)NCc3cc(F)cc(C(F)(F)F)c3)o2)no1 | 15% | 0% | 56%[activator] | . | . | 38% | 11% | -1%
O=C(Nc1ccc(Nc2ccccc2)cc1)Nc1ccccc1Cl | . | -6% | 19% | . | . | . | -51% | -10%
COC(=O)c1ccc(COC(=O)CCS(=O)(=O)c2ccc(C)cc2)cc1 | 12% | 0% | -8% | . | . | -28%[46.1 µM] | . | -11%
O=c1ccc(Br)c[nH]1 | 3% | 3% | -12% | 3.5% | -6% | 1%[46.1 µM] | -9% | 11%
Cc1ccccc1Nc1nnc(SCC2CCCCO2)s1 (stereo not drawn) | ? | -6% | 8% | -4.7% | -13% | ? | -27% | -14%
CCC(C)NC(=O)C1CCN(C(=O)c2ccc(-n3ccc4ccccc43)s2)CC1 (stereo not drawn) | ? | . | 10% | -1.8% | 17% | . | . | .
O=C(NCc1ccco1)c1ccc(CN2CCOCC2)cc1 | ? | -5% | 23% | 5.6% | 1% | ? | 7% | 7%
Nc1ccc(SC(F)(F)F)cc1 | -11%[46.1 µM] | -4% | -16% | . | . | -16%[46.1 µM] | . | -9%
Cc1ccc(C(=O)N/N=C/c2ccc([N+](=O)[O-])s2)cc1 | ? | -11% | 2.8µM* | -12% | -12% | 11µM* | -32% | -8%
O=C(CN1C(=O)C2C3c4ccccc4C(c4ccccc43)C2C1=O)Nc1cccc(C(=O)O)c1 (stereo not drawn) | 17% | -7% | -21% | -3.1% | 16% | -7% | ? | .
Cc1cc(/C=C2\C(=O)NC(=O)N(c3ccccc3)C2=O)c(C)n1-c1ccc(C(=O)O)c(Cl)c1 | . | 8% | -8% | . | . | . | 26% | 6%
C=CCc1ccccc1OCC(O)CNC1CCCC1 (stereo not drawn) | . | -2% | -4% | . | . | . | 3% | -3%
CC(=O)OCC1OC(OC(C)=O)C(NC(=O)Cc2ccccc2)C(OC(C)=O)C1OC(C)=O (stereo not drawn) | -11%[46.1 µM] | 0% | 9% | . | . | 1%[46.1 µM] | 6% | -13%
Cc1ccc(-n2c(C)cc(/C=C(\C#N)C(=O)NCC3CCCO3)c2C)cc1 (stereo not drawn) | ? | -19% | 10% | -9.9% | ? | ? | 16% | 4%
O=C(COc1ccc(Cl)cc1)Nc1nnc(-c2ccco2)o1 | 0% | -8% | -8% | . | . | -15%[46.1 µM] | . | -27%
c1ccc(CSc2nnc(-c3c[nH]c4ccccc34)o2)cc1 | -1% | 0% | 2% | -9.6% | -15% | -3% | -9% | -18%
COc1ccccc1OCC(=O)NNc1c2ccccc2nc2ccccc12 | . | -3% | -22% | . | . | . | -36% | 2%
O=C(O)COc1ccccc1/C=N/NC(=O)Cc1ccccc1 | . | 0% | -10% | . | . | . | ? | 18%
Cc1cccnc1NC(=O)C(C)Oc1ccccc1 (stereo not drawn) | 0% | 20% | 7% | 6.7% | -3% | -3% | ? | 9%
CCN(C(=O)c1cc2c(=O)oc3ccc(C)cc3c2s1)c1cc(OC)ccc1OC | -16%[46.1 µM] | . | -27% | -2.5% | 8% | ? | . | .
COc1ccccc1CNc1nc(-c2ccco2)nn1S(=O)(=O)c1ccc2ccccc2c1 | 20%[46.1 µM] | . | 50%[activator] | -1.5% | ? | 2%[46.1 µM] | . | .
Cc1cc(Nc2ccc(Br)cc2)n2nc(C)nc2n1 | . | 4% | -22% | -1.6% | 4% | . | -4% | 10%
COc1cccc(C=Nc2ccccc2C#N)c1O | 4% | -17% | -13% | 0.9% | 1% | 10% | 8% | -12%
CC(=O)Nc1ccc(S(=O)(=O)N2CCN=C2c2ccccc2)cc1 | . | 2% | 0% | . | . | . | -25% | 7%
CC1=CC(C)(C)NC(=S)N1c1ccc(C)c(C)c1 | 24% | ? | -24% | . | . | ? | . | -5%
COc1ccc(NC(=O)c2ccccc2)cc1NS(=O)(=O)c1ccc(F)cc1 | -3% | -4% | 1% | -7.3% | -8% | -7% | 3% | 3%
Cc1cc(C)nc(SCc2ccccc2C#N)n1 | 10% | -2% | 7% | -0.8% | 4% | -1% | -18% | 5%
COc1ccc(C)cc1NC(=O)CNC(=O)c1sc2ccccc2c1Cl | . | 3% | -23% | . | . | -16% | . | 2%
CCN(C(=O)Cn1c(=O)oc2cc(S(=O)(=O)N3CCCC3)ccc21)c1cccc(C)c1 | -1%[46.1 µM] | . | ? | -4.8% | 8% | ? | . | .
CCCNc1cc(=O)n(C)c(=O)n1C | -21% | 1% | 10% | 0.9% | -5% | 4% | -2% | -5%
CCC(C)NC(=O)c1cnn2c1NC(c1cccs1)CC2C(F)(F)F (stereo not drawn) | 0% | 5% | -19% | -0.7% | -7% | 8% | 0% | 4%
CC(C)(C)c1nnc2sc(SCC(=O)N3CCCCC3)nn2c1=O | -12% | 9% | -26% | . | . | ? | . | -3%
Clc1cc2nc3ccccn3c2cc1Cl | 16% | -44% | -10% | -26% | 2% | 9% | -170% | -28%
COc1ccc(N2C(=O)C3C(C2=O)C(C(=O)c2ccccc2)N2CCCC32)cc1 (stereo not drawn) | ? | -2% | -14% | . | . | 13%[46.1 µM] | -2% | -12%
CCOc1ccc2ccccc2c1C(=O)N[C@@H]1C(=O)N2[C@@H]1SC(C)(C)[C@@H]2C(=O)O | . | 0% | 0%&-8% | -25% | -27% | . | 13% | -3%&-1%[18.4 µM]
CC(C)c1cc(=O)n2[nH]c(SCc3ccccc3)nc2n1 | -16%[46.1 µM] | 1% | 31%[activator] | . | . | 0%[46.1 µM] | -1% | 13%
COc1ccc(CNC(=O)CCS(=O)(=O)c2ccc3c(c2)NC(=O)CS3)cc1 | . | 2% | -16% | . | . | . | 11% | 1%
CN(C)S(=O)(=O)c1cccc(NC(=O)Cc2ccc(Cl)cc2)c1 | 13µM* | -1% | ? | -2.3% | 0% | -17% | 3% | .
COc1ccc(C(=O)NC2CCCc3ccccc32)cc1[N+](=O)[O-] (stereo not drawn) | ? | -7% | 5% | . | . | ? | -10% | -12%
CN1CCC(N(C)CC(=O)Nc2ccc3c(c2)OC(F)(F)O3)CC1 | -1% | 0% | -21% | . | . | ? | -2% | 8%
CCOC(=O)Cn1c(=O)n(CC2CCCO2)c2nc(-c3ccccc3OC)nc(C(N)=O)c21 (stereo not drawn) | 28%[46.1 µM] | . | ? | -2.6% | -6% | . | . | .
CCCn1nnnc1SCC(=O)N1C(C)CCCC1C (stereo not drawn) | 12% | 1% | -11% | . | . | 0%[46.1 µM] | 0% | -3%
CSc1c(CN2CCN(C)CC2)c2ccccc2n1C | -3% | . | 0% | . | . | -15%[46.1 µM] | . | -2%
CC(=O)Oc1cccc(/C=C2\C=C(c3ccc(C)cc3)OC2=O)c1 | -1% | -2% | 15% | . | . | -3% | 0% | -26%
Cc1ccc(S(=O)(=O)c2cc3c(=O)n4ccccc4nc3n(C3CCCCC3)c2=N)cc1 | 30% | 0% | ? | . | . | -1% | 11% | -2%
CC1(C)CC(=O)c2c(O)cc(OCC(=O)Nc3ccc(S(N)(=O)=O)cc3)cc2O1 | . | -2% | ? | . | . | . | 8% | -4%

Single entries from the list:
COc1ccc(N2C(=O)C3C(C2=O)C(C(=O)c2ccccc2)N2CCCC32)cc1 (stereo not drawn) @ RE007 growth inh = -12%
CC(C)c1cc(=O)n2[nH]c(SCc3ccccc3)nc2n1 @ Marburg entry inh = 0%[46.1 µM]
CC1(C)CC(=O)c2c(O)cc(OCC(=O)Nc3ccc(S(N)(=O)=O)cc3)cc2O1 @ NS1 function inh = 8%
CN1CCC(N(C)CC(=O)Nc2ccc3c(c2)OC(F)(F)O3)CC1 @ 2A StopGo = -21%
CSc1c(CN2CCN(C)CC2)c2ccccc2n1C @ LASV entry inh = -3%

2 of these compounds, set out differently.
Under each structure – LASV entry inh	SARS PLpro yeast	2A StopGo	Cruzain inh Det	Cruzain noTriton	Marburg entry inh	NS1 function inh	RE007 growth inh
- COc1ccc(N2C(=O)C3C(C2=O)C(C(=O)c2ccccc2)N2CCCC32)cc1 (stereo not drawn)
  ?	-2%	-14%	.	.	13%[46.1 µM]	-2%	-12%
- COc1ccc(C(=O)NC2CCCc3ccccc32)cc1[N+](=O)[O-] (stereo not drawn)
  ?	-7%	5%	.	.	?	-10%	-12%
